Bioassay records as filed in PubChem BioAssay.
A1 inh = caspase 3/7 activation in MEF A1-2A-BIM cells, primary screen, A1 inhibitor project, cell-based, luminescence, HTS; 0.066% of 330,000 active; AID 2462, 2010; caspase activation, % (no concentration beside the values); Caspase-Glo 3/7 luminescence, 3 h; percent of clofoctol response, vehicle zero;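 active = over half of replicate activation scores above 10%, or exactly half above 10 with the replicate mean above 10; inconclusive = replicate mean below 10 yet half the replicates above 10; inactive = over half of replicates below 10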;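 note: wells of about 30 µL received 50 nL stock; many hits fall short of the cut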
RanGTP-Imp inh = inhibitors of RanGTP-importin-beta interaction, primary screen, biochemical, FRET, CFP-Ran, YFP-importin-beta, homogeneous; cell-free CFP-Ran/YFP-importin-beta FRET ratio; inhibition, % (no concentration beside the values); 1.1% of 300,000 active; AID 2216, 2009;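 active = most replicates above 15%; inconclusive = exactly half above 15%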;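 note: 0% = DMSO wells and 100% = Ran loaded with GDP instead of GTP; wells of about 40 µL received 100 nL stock; the first replicate is given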
LANA-H2B inh = blockers of LANA interaction with H2A/H2B – biochemical, FP readout, HTS, primary screen; cell-free LANA-H2A/H2B peptide, fluorescence polarization; AID 2629, 2010; inhibition, % (test concentration not listed); 0.6% of 320,000 active; in the data active = inhibition mostly above about 10%, no sharp cut-off; inactive = mostly below about 6.7%;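 note: stock transfer was 7.5 nL into about 10 µL; 0% = median of vehicle wells and 100% = median of positive control wells; one replicate is shown; the record names a cut of 25% in any replicate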
Target sequence (Q9QR71 whole entry, looked up): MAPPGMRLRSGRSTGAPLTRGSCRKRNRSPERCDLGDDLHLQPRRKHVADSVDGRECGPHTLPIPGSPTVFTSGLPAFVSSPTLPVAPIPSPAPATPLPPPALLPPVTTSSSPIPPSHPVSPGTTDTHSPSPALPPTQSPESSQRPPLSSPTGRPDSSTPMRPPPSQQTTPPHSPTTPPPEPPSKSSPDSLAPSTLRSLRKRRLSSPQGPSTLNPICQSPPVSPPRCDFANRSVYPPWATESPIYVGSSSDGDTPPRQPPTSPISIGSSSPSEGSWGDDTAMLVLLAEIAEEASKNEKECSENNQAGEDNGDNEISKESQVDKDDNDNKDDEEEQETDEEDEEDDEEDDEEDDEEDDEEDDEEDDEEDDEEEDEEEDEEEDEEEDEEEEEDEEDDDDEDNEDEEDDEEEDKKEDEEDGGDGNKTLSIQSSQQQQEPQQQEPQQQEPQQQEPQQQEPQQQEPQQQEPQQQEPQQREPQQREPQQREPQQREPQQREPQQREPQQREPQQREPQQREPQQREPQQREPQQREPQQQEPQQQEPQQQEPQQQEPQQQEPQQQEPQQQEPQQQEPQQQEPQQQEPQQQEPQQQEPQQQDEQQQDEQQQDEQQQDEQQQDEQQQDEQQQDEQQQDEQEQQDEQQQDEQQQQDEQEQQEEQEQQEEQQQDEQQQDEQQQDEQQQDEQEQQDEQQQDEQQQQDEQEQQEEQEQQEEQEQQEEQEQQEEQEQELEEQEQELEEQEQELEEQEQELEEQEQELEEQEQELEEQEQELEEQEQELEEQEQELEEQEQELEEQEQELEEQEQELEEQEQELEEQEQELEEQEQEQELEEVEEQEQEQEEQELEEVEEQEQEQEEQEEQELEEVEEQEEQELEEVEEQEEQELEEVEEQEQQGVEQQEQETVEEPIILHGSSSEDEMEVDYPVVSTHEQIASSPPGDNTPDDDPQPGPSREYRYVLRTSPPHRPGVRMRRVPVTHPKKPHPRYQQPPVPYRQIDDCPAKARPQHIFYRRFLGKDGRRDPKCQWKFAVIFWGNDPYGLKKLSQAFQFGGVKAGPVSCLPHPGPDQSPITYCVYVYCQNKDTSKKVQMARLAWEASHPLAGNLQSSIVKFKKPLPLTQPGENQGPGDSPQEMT
Calb FLC = C. albicans growth inhibition with fluconazole, primary screen, CaCi-2 strain, Alamar Blue fluorescence; C. albicans CaCi-2 (fluconazole-resistant clinical isolate) + fluconazole, 48 h; growth inhibition, % (no concentration beside the values); 0.57% of 300,000 active; AID 1979, 2009;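 active = most replicates above 75%; inconclusive = exactly half above 75%; inactive = most below 75%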;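 note: all wells also contain fluconazole at 8 µg/ml as a sub-toxic cotreatment; 0% = median of DMSO wells and 100% = median of geldanamycin control wells; wells of about 8 µL received 7.5 nL stock; the first replicate is given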
Beta cell apopt = inhibitors of cytokine-induced beta cell apoptosis, primary screen, luminescence; INS-1E cytokine-induced death, ATP luminescence, 48 h; percent of positive-control rescue, neutral wells zero; protection from apoptosis, % (concentration not given with the values); 0.8% of 300,000 active;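 active = all replicates at 75% or more, or half of them and the mean; inconclusive = half reach 75% but not the mean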;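 note: 0% = cytokine-treated negative control wells and 100% = positive control rescue; higher means more ATP so stronger rescue from cytokine killing; wells of about 40 µL received 100 nL stock; the first replicate is given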
T cruzi repl = inhibitors of intracellular T. cruzi growth, primary screen, luminescence, NIH3T3 host cells | inhibition, % (test concentration not listed) | T. cruzi beta-gal in NIH3T3, 90 h | AID 1885, 2009 | 1.4% of 300,000 active;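 active = mean inhibition across valid replicates above about 55%, limit read from the data; inconclusive = mean below that limit but half or more replicates reach it; inactive = mean below it, under half of replicates reach it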;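 note: signal also drops with host cell toxicity which is not excluded here; 0% = plate median of DMSO wells and 100% = zero luminescence signal; higher percent means less beta-gal luminescence so fewer parasites; stock transfer was 50 nL into about 50 µL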
AF4-AF9 inh = inhibitors of AF4 peptide binding to AF9, primary screen, biochemical, AlphaScreen, biotin-AF4 peptide, FLAG-AF9, single point; Protein AF-9 (Homo sapiens), P42568; inhibition, % at 10 µM; 0.47% of 350,000 active; AID 651704, 2012;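 active = every replicate reaching a set inhibition limit, whatever the replicate mean, cut at about 25% in these data; inconclusive = mean inhibition reaches that limit but some replicates miss it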;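 note: 0% = plate neutral control median and 100% = total signal loss; the record names both 10 and 1 µM as test concentration; the first replicate is given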
Vif A3G = inhibitors of Vif binding to APOBEC3G peptide, primary screen, biochemical, TR-FRET, GST-Vif 1-94, biotin-A3G peptide, dose response retest (AID 1117319) | Virion infectivity factor (Human immunodeficiency virus type 1 group M subtype B (isolate … | TR-FRET GST-Vif / biotin-A3G peptide binding; higher % means a stronger effect; test concentration not given here; strong numbers were not always called active | inhibition, %, or IC50 in µM where a hit was titrated | 0.57% of 260,000 active;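 active = above the screen mean plus three standard deviations and confirmed in dose response; inconclusive = results disagree or hit not tested in dose response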;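 note: Vif residues 1-94 fused to GST binding biotinylated APOBEC3G peptide 110-148; 0% = full assay without inhibitor and 100% = GST in place of GST-Vif; retest series ran down from 100 µM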
Numbers without * were called inactive; ? = inconclusive; / = not tested or not shown; + = active, no number. Rows were taken by chance (roughly 4.3% active in at least one column).

molecule	RanGTP-Imp inh	Beta cell apopt	Calb FLC	AF4-AF9 inh	T cruzi repl	A1 inh	LANA-H2B inh	Vif A3G
CCOC(=O)C1=C(C(C)=O)C(c2cccnc2)C(C#N)=C(N)O1 (stereo not drawn)	-1.5	-2.2	-11.5	/	-3.1	0.0	-5.2	?
O=c1c2[nH]cnc2n(-c2ccc(F)cc2)c(=O)n1Cc1ccccc1	0.0	-6.5	-1.0	-14.3	-14.9	0.9	-2.2	-11.7%
CCOC(=O)c1[nH]c2ccccc2c1NC(=S)Nc1cc(C)ccc1C	-15.4	-0.3	-5.7	4.3	-13.2	3.7	-3.5	/
Cc1ccc(CCNC(=O)CN2C(=O)COc3ccc(S(=O)(=O)N4CCC(C)CC4)cc32)cc1	3.8	-1.7	-13.4	-2.2	16.7	2.2	2.0	/
O=C(c1cc2cc([N+](=O)[O-])ccc2oc1=O)N1CCOCC1	-1.4	/	14.6	-1.2	-3.4	0.3	-6.7	1.2%
COc1ccc(CCN2C(=O)CS/C2=N\NC(=O)c2ccc(C(C)(C)C)cc2)cc1OC	-1.4	7.9	-3.7	/	7.5	2.4	-5.1	-4.4%
O=S1(=O)N=C(N2CCOCC2)c2ccccc21	2.9	2.0	3.2	/	-19.2	0.8	0.1	9.4%
CCOP(=O)(OCC)c1nc(-c2cccc3ccccc23)oc1NCCc1ccc(OC)cc1	-0.5	-4.4	-12.3	-43.5	34.4	-0.6	4.7	-4.4%
COCCC1CCCCN1Cc1cn(-c2ccccc2)nc1-c1ccc2c(c1)OCO2 (stereo not drawn)	0.3	1.6	-2.9	-1.1	1.0	0.4	2.3	-6.5%
C=CCNC(=O)NC(=S)c1ccccc1	-1.3	-0.7	-0.6	/	-11.4	-0.7	0.6	4.7%
COc1ccccc1NC(=O)NNC(=O)C(C)Oc1ccc2ccccc2c1 (stereo not drawn)	-1.4	-1.8	-18.4	-3.3	-3.6	-0.4	-4.6	/
COc1ccccc1N1CCN(c2nnc(-c3ccc(F)cc3)c3ccccc23)CC1	3.3	2.0	4.7	/	11.7	0.5	0.1	0.8%
COc1ccccc1CNC(=O)c1ccc(NC(=O)CC2SC(N3CCCC3)=NC2=O)cc1 (stereo not drawn)	/	3.2	/	1.7	/	0.9	3.9	/
COc1cc(/C=C/C(=O)N(C)c2ccccc2C(=O)O)cc(OC)c1OC	0.0	-2.5	1.2	/	2.0	-0.7	-1.8	-13.1%
COc1cccc(NC(=O)c2oc3ccccc3c2NC(=O)c2ccc3c(c2)OCO3)c1	-2.6	21.4	12.2	/	42.7	-3.2	-0.8	2.8%
Cc1cccc2c1[nH]c1nc(N/N=C\c3ccco3)nnc12	4.2	3.8	-13.1	/	-8.3	-0.7	0.0	3.0%
Cc1cccc(C2NC(=O)c3c(sc(C)c3C)N2)c1O (stereo not drawn)	-1.9	2.6	3.8	/	-6.3	-1.6	3.4	?
COc1ccc2[nH]c3c(=O)n(CCCCC(=O)NCCC(C)C)c(=S)[nH]c3c2c1	-1.9	-0.3	-6.3	-0.1	1.8	0.3	-3.8	13.2%
Cc1ccc(NS(=O)(=O)c2ccc(C(=O)NNC(=O)c3ccccc3O)cc2)cc1	-1.3	60.0	-3.5	-13.4	2.2	-0.2	1.2	24.4%
Cc1ccc(N2CC(C(=O)N3CCOCC3)CC2=O)cc1Cl (stereo not drawn)	?	0.1	/	-7.4	-0.4	-0.1	-2.5	/
Cc1cc([N+](=O)[O-])ccc1NC(=O)Nc1ccc(F)cc1F	0.3	/	10.6	1.7	55.1*	1.3	-6.0	?
O=C1CCC(=O)N1c1ccc(S(=O)(=O)N2CCCC2)cc1	-4.5	2.5	-11.0	-2.5	-3.5	0.3	0.2	6.5%
Cc1cc(C)cc(C(=O)NC(CC(N)=O)c2ccc(N3CCN(C)CC3)c([N+](=O)[O-])c2)c1 (stereo not drawn)	-2.5	1.6	6.6	0.8	-10.3	-0.3	3.1	/
Cc1ccc(CCNC(=O)c2coc3nc4ccccc4nc23)cc1	0.0	-6.7	-15.0	/	-7.2	?	-2.4	11.5%
CN(C(=O)CN1C(=O)NC(C)(c2cccc(Br)c2)C1=O)C1CCCCC1 (stereo not drawn)	/	1.5	/	0.2	/	-0.4	-2.5	-5.9%
CNC(=S)NNC(=O)c1ccccc1Br	6.1	-4.4	2.2	-6.5	2.1	-0.4	4.8	4.3%
CC(C)COc1ccc(N)cc1OCC(C)C	-2.4	1.2	-29.6	10.8	44.4	0.6	-8.8	/
COc1ccc(-c2oc3ccccc3c(=O)c2OC(=O)c2ccc(C)cc2)cc1	2.0	7.8	7.3	/	11.5	-1.4	0.5	15.7%
CCCC(=O)NC(=S)Nc1cccc(-c2nc3ncccc3o2)c1	-5.1	-8.8	0.1	-1.3	-8.2	0.1	5.7	-58.1%
CCOc1ccccc1NC(=O)c1cc(Cl)ccc1NC(=O)c1ccco1	6.1	-2.7	5.3	/	3.1	1.0	4.4	0.1%
Oc1ccccc1/C=N/Nc1ncc(Br)cn1	1.7	87.5*	40.8	2.1	10.3	-3.8	+	24.4%
COC(=O)CCCNC(=O)c1ccccn1	-1.6	-5.9	6.5	-2.9	-7.1	0.5	1.4	-1.1%
Cc1nn(Cc2cccc(F)c2)c(C)c1NC(=O)c1c([N+](=O)[O-])c(C)nn1C	2.8	-3.8	-1.1	/	3.2	?	-2.0	?
Cc1ccc2cc(CN(CCCO)S(=O)(=O)c3cccc4nsnc34)c(=O)[nH]c2c1	-3.7	1.5	-1.3	/	-13.0	/	-4.6	0.6%
Nn1c(SCC(=O)NC2CCCCC2)nnc1-c1ccc(Cl)cc1	-2.3	-4.8	-12.1	/	0.0	-0.1	2.2	?
COc1ccc(S(=O)(=O)NCc2cccs2)cc1	2.6	-6.1	-3.6	/	-12.8	-0.3	-0.4	15.1%
O=S(=O)(NC1Cc2ccccc2C1)c1ccccc1	1.3	2.4	-20.1	-27.6	-3.3	0.7	0.3	1.4%
COC(=O)c1c(NC(NC(=O)CC(C)C)C(Cl)(Cl)Cl)sc2c1CCC2 (stereo not drawn)	0.1	7.6	-4.3	/	13.3	-0.2	0.5	4.5%
CCN(C(=O)C(C)N1C(=O)/C(=C/c2ccco2)SC1=S)C1CCS(=O)(=O)C1 (stereo not drawn)	2.8	-16.8	-2.4	8.1	-1.7	0.6	1.2	/
Brc1ccc(-c2nnc3n2CCCCC3)cc1	-0.8	-4.0	-4.3	/	/	1.0	-5.1	8.1%
NC(=O)CSc1nc(-c2ccccc2)nc2c1CCCC2	?	4.3	7.3	1.3	-4.8	-0.2	-0.4	3.9%
CCOC(=O)c1ccc(NC(=O)NCCN2CCCCC2)cc1	6.3	/	-2.5	/	7.0	/	/	?
COc1ccccc1N(CC(O)Cn1ccnc1C)S(=O)(=O)c1ccc(C)cc1 (stereo not drawn)	-0.8	-5.5	?	7.0	7.1	0.0	2.5	-5.6%
NC(=O)C1CCN(c2oc(-c3ccc(F)cc3)nc2S(=O)(=O)c2ccccc2)CC1	/	-4.9	/	0.1	/	0.3	0.2	-10.9%
CC(C)CCn1c(=O)c2ccccc2n2c(CCC(=O)NCC3CCCO3)nnc12 (stereo not drawn)	-2.9	-3.4	15.6	3.1	-2.2	0.9	2.4	/
CC(C)(C)NC(=O)Cn1c(SCC(=O)N2CCCCCC2)nc2ccccc21	5.1	-3.3	-8.2	/	-2.8	0.9	0.5	-2.4%
COc1ccc(OC)c(N(C(=O)c2ccco2)C(C(=O)NC2CCCC2)c2cc(OC)c(OC)c(OC)c2)c1 (stereo not drawn)	5.0	-3.5	10.5	-1.9	10.7	-0.3	-4.3	-4.9%
CCCc1nnc(NC(=O)C(C)N2C(=O)C3C4C=CC(C4)C3C2=O)s1 (stereo not drawn)	-2.5	0.4	3.0	/	-4.4	0.4	6.8	13.7%
Cc1ccc(-n2nnc3c(=O)n(Cc4ccccn4)cnc32)cc1C	2.0	-2.0	-54.1	0.4	0.9	-0.4	2.1	-4.7%
CNC(=S)N/N=C/c1cn(Cc2c(F)cccc2Cl)c2ccccc12	-0.1	72.7	43.8	/	42.7	-0.5	-0.9	?

New compounds follow.
molecule	RanGTP-Imp inh	Beta cell apopt	Calb FLC	AF4-AF9 inh	T cruzi repl	A1 inh	LANA-H2B inh	Vif A3G
CCCN(CCC)CCNS(=O)(=O)c1ccc2c(c1)oc(=O)n2C	-2.8	-2.1	0.5	/	-2.9	-0.3	-0.2	-5.2%
CCC(Oc1ccc2c(c1)C(=O)CC(C)(C)O2)C(=O)NCCN1CCCCCC1 (stereo not drawn)	4.5	-5.8	-0.7	/	-16.0	0.2	-19.3	-6.1%
Cc1cc(-n2[nH]c(C)c(C)c2=O)nc(-c2ccccc2O)n1	3.9	45.7	3.9	/	21.9	0.1	5.8	8.3%
COc1ccc(COC(=O)Nc2c(SC)nsc2SC)cc1	-2.4	3.6	-0.8	-2.2	-20.2	1.0	-0.1	5.2%
CCc1nc(C)cn1S(=O)(=O)c1ccc(Br)cc1	-5.4	-5.3	1.8	-1.9	-4.7	0.3	-3.4	/
Cc1nn(C)c(C(=O)NNC(=O)Nc2cccc(C(F)(F)F)c2)c1Cl	-1.2	2.4	-4.1	0.0	-4.3	0.0	4.8	/
Cc1ccc(O)c(NC(=O)CSc2n[nH]c(-c3ccccc3)n2)c1	-0.9	1.8	7.5	-1.3	-15.0	-0.6	2.9	/
O=C(NCCc1c[nH]c2ccccc12)c1ccc2c(c1)OCO2	2.2	2.7	4.1	-4.2	-8.4	-2.1	4.3	/
COc1ccccc1-c1nnc(N)s1	-2.1	-7.0	-3.9	-1.5	-13.9	1.2	6.1	2.4%
CC(=O)OC[C@H]1COc2ccc3ccccc3c2[C@H]1N(C)C(C)=O	6.2	0.5	-2.8	/	-10.6	0.6	5.6	/
CCN1CCCn2c1nc1c2c(=O)n(C)c(=O)n1C	0.0	0.1	4.7	11.5	2.8	0.6	-0.9	/
Cn1c(=O)[nH]c(=O)c2c1nc(NCCCO)n2CCOc1ccccc1	?	-5.5	-7.9	-9.9	-5.5	0.2	2.6	-0.8%
